High-throughput results deposited in PubChem by Vanderbilt University.
GIRK2 activ = opens human GIRK2 potassium channels; P48051; HEK293-GIRK2 thallium flux, Thallos fluorescence; calls only for hits at 25 µM; 0.05% of 63,000 active; AID 1259325;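 active = among the strongest 0.2% of first-round signals and kept after retests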;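 also: first round at about 10 µM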
Target sequence (P48051 whole entry, looked up): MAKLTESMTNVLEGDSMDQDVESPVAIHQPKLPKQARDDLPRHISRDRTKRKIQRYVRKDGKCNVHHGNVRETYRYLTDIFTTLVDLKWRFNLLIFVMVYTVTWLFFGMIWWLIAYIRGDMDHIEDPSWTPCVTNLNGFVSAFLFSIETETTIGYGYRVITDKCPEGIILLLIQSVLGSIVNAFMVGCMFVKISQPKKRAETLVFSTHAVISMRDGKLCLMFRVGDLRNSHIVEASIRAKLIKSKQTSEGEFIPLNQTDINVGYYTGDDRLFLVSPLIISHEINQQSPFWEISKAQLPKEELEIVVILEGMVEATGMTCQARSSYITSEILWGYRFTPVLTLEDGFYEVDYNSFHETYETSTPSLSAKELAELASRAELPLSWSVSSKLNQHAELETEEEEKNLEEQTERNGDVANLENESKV
Calls only; i = inactive. The list is partial; the hit share may differ from the screen's.

GIRK2 activ	Molecule
i	CC(NC(=O)CCc1csc(NC(=O)c2ccc(=O)[nH]c2)n1)c1ccccc1 (configuration not stated)
i	CC12CC(c3ccccc3O1)C(C(=O)Nc1ccc(F)cc1)C(=O)N2 (configuration not stated)
i	CCCCCCC(C)C/C(C)=C\C(/C=C(C)/C=C/C(O)C(C)(C)c1cc(O)c([C@H]2O[C@@H](CO)C[C@@H](O)[C@@H]2O)c(=O)o1)CO (some centres not stated)
i	CCOc1ccc(-c2nc(Cn3cnc4c(oc5ccccc54)c3=O)c(C)o2)cc1OC
i	COc1ccccc1-c1c(-c2ccc(O)cc2O)n[nH]c1C(F)(F)F
i	O=C(c1ccccc1Cl)N1CCC(c2cccs2)CC1
i	O=C(c1ccccc1C(F)(F)F)N1CCC(COCc2ccccc2)CC1
i	COc1ccc(CNC(=O)Nc2ccc3c(c2)N(S(=O)(=O)c2cccs2)CCC3)cc1OC
i	CCCOc1ccc(S(=O)(=O)Nc2ccc3c(c2)CCC(=O)N3)cc1C
i	Cc1nn(-c2ncc(NC(=O)COc3ccc(Cl)cc3)cn2)c(C)c1C

The last two records of the section above are carried over, then new ones follow:
GIRK2 activ	Molecule
i	CCCOc1ccc(S(=O)(=O)Nc2ccc3c(c2)CCC(=O)N3)cc1C
i	Cc1nn(-c2ncc(NC(=O)COc3ccc(Cl)cc3)cn2)c(C)c1C
i	CCCN(C)c1nccn2c(=O)n(CC(=O)Nc3cccc(SC)c3)nc12
i	CCCc1noc(-c2ccc(SCC(=O)Nc3ccc4c(c3)OCCO4)nc2)n1
i	CNC(=O)C(=O)NCCC1CCCCN1S(=O)(=O)c1cc(C)ccc1C (configuration not stated)
i	O=C(NCC1CCN(Cc2ccco2)CC1)c1cnc2ccccc2n1
i	CN(C)CCCN1C(=O)C(=O)C(=C(O)c2ccncc2)C1c1cccc(Br)c1 (configuration not stated)
i	COc1ccc(N2CCN(S(=O)(=O)c3ccc(F)cc3)CC2)cc1
i	COc1ccc2c(c1)c(CC(=O)NCCc1ccc([N+](=O)[O-])cc1)c(C)n2C(=O)c1ccc(Cl)cc1
i	O=C(CCc1ccc(O)cc1)CC(CCc1ccc(O)c(O)c1)O[C@@H]1OC[C@@H](O)[C@H](O)[C@H]1O (some centres not stated)
i	COc1ccc(CC(=O)NCCN2CCN(c3ccccc3OC)CC2)cc1
i	CN1CCN(c2nc3ccccc3nc2C(C#N)C(=O)OC2CCCCC2)CC1 (configuration not stated)
i	O=S(=O)(c1ccc(Br)s1)N1CCC(c2cccs2)CC1
i	Cc1nc2ccccc2n1CC1CCN(CC(N)=O)CC1
i	CNC(=O)C(=O)NCCC1CCCCN1S(=O)(=O)c1ccccc1 (configuration not stated)
i	O=C(CCCn1cccc1)Nc1ccc(S(=O)(=O)Nc2ncccn2)cc1
i	CSc1ccccc1NC(=O)CSc1nnc(CCc2nc3ccccc3[nH]2)o1
i	CC(O)(CNC(=O)c1ccc(OC(F)(F)F)cc1)c1ccccc1 (configuration not stated)
i	COC(=O)c1cc(Nc2ccc3c(c2)OCO3)c2cc(Cl)ccc2n1
i	CCOC(=O)Cn1c(=O)c2c(nc3n2CCN3c2cc(C)ccc2OC)n(C)c1=O
i	COCCn1c(N)c(C(=O)OCC(C)C)c2nc3ccccc3nc21
i	O=S(=O)(NCCN1CCN(c2ccc(Cl)cc2)CC1)c1ccc(Cl)s1
i	CCc1ccc(CNC(=O)Cn2cnc3c([nH]c4ccccc43)c2=O)cc1
i	COc1ccc(CNC(=O)c2ccc(Oc3nccnc3N3CCCCC3)cc2)cc1
i	COc1ccc2nc(CN3CCN(C(=O)c4ccc([N+](=O)[O-])o4)CC3)[nH]c2c1
i	COc1cc(S(=O)(=O)NCCC2=CCCCC2)ccc1F
i	Cc1cc(C)nc(Nc2nc(CC(=O)NCCc3cccs3)cs2)n1
i	CN1CCCC(C(=O)N2CCC3(CCc4ccccc4O3)CC2)C1 (configuration not stated)
i	Cc1ccc(NC(=O)Cn2cnc(-c3noc(-c4ccc(F)cc4)n3)c2)cc1Cl
i	CCN(CC)CCNc1nc2c(c(=O)n(C)c(=O)n2C)n1CC(O)COc1ccc(C)c(C)c1 (configuration not stated)
i	Cc1c(C)n2c3c(=O)n(C)c(=O)n(C)c3nc2n1CC(=O)OCc1ccccc1
i	COc1ccccc1NC(=O)CN1CCC(Cn2cnc3ccccc32)CC1
i	O=C(Nc1ccccc1Cl)N1CC(Oc2nc3c(F)cccc3s2)C1
i	O=C(CN1CCN(Cc2cccc(C(F)(F)F)c2)CC1)c1cccs1
i	O=C(CSc1nnc(CCc2nc3ccccc3s2)o1)N1CCN(c2ccccc2F)CC1
i	COc1cc(S(=O)(=O)NC(C)(C)C)ccc1Cl
i	Cc1ccc(-n2c(C)cn3c4c(=O)n(CCCO)c(=O)n(C)c4nc23)cc1Cl
i	COc1ccc(OCCC(=O)Nc2nccs2)cc1
i	COc1ccc(CC(=O)Nc2ccc(-n3nnc(C(=O)NCC(F)(F)F)n3)cc2)cc1
i	CCSc1ccccc1C(=O)NCCCOc1cccc2cccnc12
i	O=C(Nc1nccs1)C1CCN(C(=O)c2cc(-c3cccs3)[nH]n2)CC1
i	O=C(CN1CCN(Cc2ccc(F)c(F)c2)CC1)c1cccs1

Arranged by molecular weight (descending): some entries from above.
GIRK2 activ	Molecule
i	O=C(CSc1nnc(CCc2nc3ccccc3s2)o1)N1CCN(c2ccccc2F)CC1
i	COc1ccc(CC(=O)Nc2ccc(-n3nnc(C(=O)NCC(F)(F)F)n3)cc2)cc1
i	Cc1ccc(-n2c(C)cn3c4c(=O)n(CCCO)c(=O)n(C)c4nc23)cc1Cl
i	O=C(Nc1nccs1)C1CCN(C(=O)c2cc(-c3cccs3)[nH]n2)CC1
i	O=C(Nc1ccccc1Cl)N1CC(Oc2nc3c(F)cccc3s2)C1
i	CCSc1ccccc1C(=O)NCCCOc1cccc2cccnc12

Reprinted at random: two entries already listed.
GIRK2 activ	Molecule
i	CNC(=O)C(=O)NCCC1CCCCN1S(=O)(=O)c1ccccc1 (configuration not stated)
i	COc1ccc2c(c1)c(CC(=O)NCCc1ccc([N+](=O)[O-])cc1)c(C)n2C(=O)c1ccc(Cl)cc1

Later entries:
GIRK2 activ	Molecule
i	Cc1cccc(S(=O)(=O)N2CCN(CCn3nc(-c4ccccc4)ccc3=O)CC2)c1
i	O=C(Cc1cccs1)NCCCS(=O)(=O)N1CCc2ccccc2C1
i	C#CCOCC1CCN(S(=O)(=O)c2ccc3c(c2)CCCC3)CC1
i	COc1ccc(CCNC(=O)c2cc(=O)c(OCc3ccccc3)co2)cc1
i	CCCCC/C=C\CCCC/C=C\C/C=C\CCCC(=O)O
i	Cc1nc(-c2ccccc2Cl)sc1CNC(=O)c1ccc2nsnc2c1
i	O=C(COc1ccccc1F)N(Cc1ccsc1)CC(F)(F)F
i	Cc1ccc(S(=O)(=O)CC(=O)N(CCN2CCOCC2)c2nc3c(C)cccc3s2)cc1
i	CCn1c(=O)c(C(=O)Nc2cc(OC)c(OC)c(OC)c2)c(O)c2sccc21
i	CCOC(=O)c1ccc(NC(=O)Cn2nc3c(N4CCOCC4)nccn3c2=O)cc1
i	COc1ccc(CCNC(=O)N2CCN(CC(C)O)CC2)cc1 (configuration not stated)
i	CCOC(=O)CCC(=O)N1CCC(CSCc2ccco2)CC1
i	COc1cccc(CSc2nc(C)c(CC(=O)NCc3cccs3)c(=O)[nH]2)c1
i	O=C(NCCC(O)C1CC1)Nc1ccc(Cl)c(Cl)c1 (configuration not stated)
i	CC(=O)OCC(=O)[C@@]1(O)CC[C@H]2[C@@H]3CCC4=CC(=O)C=C[C@]4(C)[C@H]3[C@@H](O)C[C@@]21C
i	COCCn1c(C)c(C)n2c3c(=O)[nH]c(=O)n(C)c3nc12
i	Cc1ccc2[nH]c3c(=O)n(CCC(=O)N4CCN(c5cccc(C)c5C)CC4)cnc3c2c1
i	Cc1ccc(S(=O)(=O)NCCC(=O)NCc2cccnc2)cc1
i	CN1CCN(c2cc(OCCNC(=O)Nc3cccc(Cl)c3)ncn2)CC1
i	CC(C)CNC(=O)c1ccc2c(=O)n(Cc3ccccc3)c3nn(CC(N)=O)c(=O)n3c2c1
i	O=C(O)c1cnc(NCC2CCCO2)nc1-c1ccccc1 (configuration not stated)
i	Cc1nnc(NC(=O)CCc2csc(NC(=O)Nc3cccc(Cl)c3)n2)s1
i	CCc1ccc(NC(=O)Cn2c(=O)[nH]c3c(oc4ccccc43)c2=O)cc1
i	CC(C)Oc1ccc(C(=O)NCC2CCS(=O)(=O)C2)cc1 (configuration not stated)
i	O=C(CN1C(=O)CCC1=O)NCC1CCN(c2cnccn2)CC1
i	O=C(CSc1nc2ccccc2c(=O)n1CCCC(=O)N1CCCC1)NCCc1ccccc1
i	N#C/C(C(=O)c1c[nH]c2ccccc12)=C1\SCC(=O)N1c1ccccc1
i	O=C(NCc1ccc(F)cc1)c1sccc1S(=O)(=O)N1CCN(c2ccc(F)cc2)CC1
i	COc1ccc(S(=O)(=O)Oc2ccc3c(c2)O/C(=C\c2cccs2)C3=O)cc1
i	Cc1c(C(=O)NC(c2ccccc2)c2ccccc2)nnn1-c1ccccc1

Structures shown so far with a CF3 group, in the order listed:
GIRK2 activ	Molecule
i	COc1ccccc1-c1c(-c2ccc(O)cc2O)n[nH]c1C(F)(F)F
i	O=C(c1ccccc1C(F)(F)F)N1CCC(COCc2ccccc2)CC1
i	CC(O)(CNC(=O)c1ccc(OC(F)(F)F)cc1)c1ccccc1 (configuration not stated)
i	O=C(CN1CCN(Cc2cccc(C(F)(F)F)c2)CC1)c1cccs1
i	COc1ccc(CC(=O)Nc2ccc(-n3nnc(C(=O)NCC(F)(F)F)n3)cc2)cc1
i	O=C(COc1ccccc1F)N(Cc1ccsc1)CC(F)(F)F

(continued)
GIRK2 activ	Molecule
i	O=C(Cn1ccc2ccccc21)N1CCN(C(=O)C2CC2c2cccs2)CC1 (configuration not stated)
i	CC1CCC(NC(=O)c2snc(-c3ccccn3)c2NC(=O)C2CC2)CC1 (configuration not stated)
i	Cn1nnn(-c2ccc(NC(=O)c3c(F)cccc3F)cc2)c1=O
i	CCCNC(=O)CCc1nc2ccccc2n(CC(=O)Nc2c(C)cccc2C)c1=O
i	O=c1cccnn1CCNS(=O)(=O)c1cc(C(F)(F)F)cc(C(F)(F)F)c1
i	CC(=O)c1sc(NC(=O)COc2ccc(C(C)(C)C)cc2)nc1C
i	CC1=[N+](CCCCS(=O)(=O)[O-])c2ccc3ccccc3c2C1(C)C
i	CN(C)S(=O)(=O)c1ccc(C(=O)Nc2ccccc2-c2ccc(=O)[nH]n2)cc1
i	O=C(NCc1cccs1)Nc1ccc(-n2nnn(CC(=O)N3CCOCC3)c2=O)cc1
i	Cc1nnsc1C(=O)NCC1CCN(C(=O)c2ccoc2)CC1
i	Cc1ccc(/C=C/c2nc(C#N)c(N3CCN(C(=O)c4ccc(Cl)cc4)CC3)o2)cc1
i	COc1ccc(-c2n[nH]n3c2nc(=O)c2ccc(C(=O)NCc4ccccc4Cl)cc23)cc1
i	COc1ccccc1CNC(=O)CCc1nc2sc3c(c2c(=O)[nH]1)CCCCC3
i	Cc1nnsc1C(=O)N1CCc2nc(NC(=O)c3ccco3)sc2C1
i	O=C(Cn1nc2ccc(Sc3cccc(F)c3)nn2c1=O)Nc1ccc2c(c1)OCCO2
i	COc1cccc(-c2cc(C(=O)NCCn3ncccc3=O)[nH]n2)c1
i	CN(C)c1ccc(C(=O)NCC2CCN(C(=O)c3ccncc3)CC2)cc1
i	COc1cccc(-c2csc3c(=O)[nH]c(N4CCCC(C(=O)NC5CCCCCC5)C4)nc23)c1 (configuration not stated)
i	CN(C)S(=O)(=O)c1ccc(C(=O)N2CCN(S(=O)(=O)C3CC3)CC2)cc1
i	O=c1c(-c2nc(-c3ccccc3Cl)no2)cccn1CCOc1ccc(F)cc1
i	COc1ccc(C2C(=C(O)c3ccncc3)C(=O)C(=O)N2CCCN(C)C)cc1 (configuration not stated)
i	O=S(=O)(NCCc1ccc(Cl)cc1)C1CC1
i	COCCNC(=O)NCc1cc(-c2cccs2)n(C2CCCC2)n1
i	Cc1cc(NC(=O)c2cnn3c2OCCC3)sn1
i	Cc1ccc(NC(=O)CSC2=NNC3C4CC(c5ccc(F)cc5)NN4C=CN23)cc1F (configuration not stated)
i	CC(OC(=O)c1ccc(O)cc1O)C(=O)c1cccc(Cl)c1 (configuration not stated)
i	O=C(CCC1NC(=O)c2ccccc2NC1=O)NCCc1c[nH]c2ccccc12 (configuration not stated)
i	CCOc1ccc(N2C(=O)C3N=NN(Cc4nc(-c5ccc6c(c5)OCO6)no4)C3C2=O)cc1 (configuration not stated)
i	C=C(C)Cn1c(=O)c2c(nc3n(CC(C)C)c(C)c(C)n23)n(C)c1=O
i	CC(=O)Nc1ccc(C(=O)NCCNS(=O)(=O)c2ccc(C)c(C)c2)cc1
i	CC(C)NC(=O)NCC#CCOc1ccccc1C(N)=O
i	O=C(Cn1cc(S(=O)(=O)N2CCCC2)ccc1=O)NCc1ccc2c(c1)OCO2
i	Cc1ccc(-n2nnc(C(=O)NCc3ccc(C(F)(F)F)cc3)c2-c2cccnc2)cc1
i	NC(=O)c1nnn(-c2ccc(Cl)cc2)n1
i	CCn1c(SCC(=O)NCc2ccc(OC)cc2)nc2c(-c3ccccc3)c[nH]c2c1=O
i	O=C(CSC1=NNC2C3CC(c4ccc(F)cc4)NN3C=CN12)NCCc1ccccc1 (configuration not stated)
i	CCCn1c(=O)c2sc(N3CCCC3)nc2n(CC(=O)Nc2cc(F)cc(F)c2)c1=O
i	Cc1ccc(S(=O)(=O)Nc2ccc3c(c2)N(S(C)(=O)=O)CCC3)c(C)c1
i	c1ccc(-c2csc3nnc(SCc4ccc5c(c4)OCO5)n23)cc1
i	CC[C@H](C)/C=C(C)/C=C/C1=CC2=C(Cl)C(=O)[C@](C)(OC(C)=O)C(=O)C2=CN1CCO
i	COc1cccc(CC(=O)Nc2ccc(Cn3cnc(C(=O)Nc4cccc(Cl)c4)c3)cc2)c1
i	Cc1cc(-c2nnc(NC(=O)NCc3ccc(Cl)cc3)o2)c(C)o1
i	CCCNC(=O)NC12CC3CC(CC(C3)C1)C2
i	CCOC(=O)CCC(=O)N1CCN(CCn2ccnc2)CC1
i	CCC1(c2ccccc2)C(=O)NCNC1=O
